Source: PubChem (National Center for Advancing Translational Sciences (NCATS))
RE007 growth inh: less growth of the S. pombe RE007 Vpr strain; S. pombe RE007 Vpr strain, BacTiter-Glo ATP luminescence, 24 h; control for the full effect not named in the record; Potency, µM (titrated, usually from 92.2 µM), for the others: at the top dose activity change, negative = less growth; 0.21% of 360,000 active; active = well fitted falling curve with a large enough effect; inconclusive = small, poorly fitted or top-dose-only effect; inactive = no such curve, though single readings can be large or run the other way;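 further: on the % scale 0 is the no-effect control and ±100 the full control effect; nearly all actives have a fitted effect of over 50% in size; the assay follows cell death caused by Vpr and the record does not say whether a fall means rescue or toxicity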
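Fission yeast RE007 carrying one integrated HIV-1 vpr copy, seeded at OD 0.01 in PMG+AL medium with 23 nL pinned compound. Grown 24 h at 30 degrees; viability read by BacTiter-Glo luminescence after 5 min.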
MARV entry inh: blocks Marburg virus binding to or entry into cells; Marburg virus pseudotyped entry inhibition, cell reporter; control for the full effect not named in the record; about a third of the inactives were read at about 46 µM; Potency, µM (highest dose often 37.8 µM), for the others: top-dose activity change, negative = inhibition, actives largely listed as inhibitors; 1.8% of 300,000 active; AID 540276; active = well fitted inhibition curve with a large enough effect; inconclusive = small, poorly fitted or top-dose-only effect, or effect the other way; inactive = flat fitted curve, though single readings scatter; tested in HEK293 cells; about a fifth of its hits are not listed in these tables; further: on the % scale 0 is the no-effect control and ±100 the full control effect; luciferase read-out
Cruzain Triton: cruzain (T. cruzi) inhibition with detergent | P25779 | purified cruzain, Z-FR-AMC fluorescence, 0.01% Triton | Potency, µM, inactives show max response, negative = inhibition, actives largely listed as inhibitors | 0.43% of 200,000 active;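 further: plate controls were neutral wells for no effect and buffer without enzyme for full effect; nearly all actives have a fitted effect of over 40% in size; top concentration of the series not given in the record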
Target sequence (P25779 123-467 limits assumed): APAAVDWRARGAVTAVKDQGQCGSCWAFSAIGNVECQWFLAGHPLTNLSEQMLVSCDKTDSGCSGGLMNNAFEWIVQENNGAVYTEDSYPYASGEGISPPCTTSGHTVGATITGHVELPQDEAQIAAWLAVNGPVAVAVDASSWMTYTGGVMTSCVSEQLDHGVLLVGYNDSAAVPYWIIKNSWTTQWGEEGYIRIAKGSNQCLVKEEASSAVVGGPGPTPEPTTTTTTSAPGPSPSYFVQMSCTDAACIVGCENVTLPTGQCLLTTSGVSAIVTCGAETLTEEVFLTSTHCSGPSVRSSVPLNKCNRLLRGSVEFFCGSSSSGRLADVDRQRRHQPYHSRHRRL
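15 min RT preincubation of 1.5 nM cruzain with compound, then 2 uM Z-FR-AMC added; kinetic AMC fluorescence, 60 s delta. Triton X-100 0.01%, pH 5.5.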
LASV entry inh: blocks Lassa virus binding to or entry into cells | Potency, µM (doses to about 37.9 µM), without a hit: top-dose activity change, negative = inhibition, most hits filed as inhibitors | 1.2% of 300,000 active | Lassa virus pseudotype entry inhibition, cell reporter; control for the full effect not named in the record; active means well fitted inhibition curve with a large enough effect; inconclusive means small, poorly fitted or top-dose-only effect, or effect the other way; inactive means flat fitted curve, though single readings scatter; tested in HEK293 cells; further: on the % scale 0 is the no-effect control and ±100 the full control effect; nearly all actives have a fitted effect of over 50% in size; luciferase read-out
Cruzain noTriton: blocks cruzain activity in detergent-free assay. Potency, µM, for inactives: max response, negative = inhibition, most hits filed as inhibitors. P25779. purified cruzain, Z-FR-AMC fluorescence, no detergent. AID 1476. 2.3% of 200,000 active;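 further: plate controls were enzyme without inhibitor for no effect and buffer without enzyme for full effect; nearly all actives have a fitted effect of over 40% in size; top concentration of the series not given in the record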
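Detergent-free condition (0.00005% Triton X-100) in acetate buffer pH 5.5 with DTT. 1.5 nM enzyme and compound were pre-mixed 15 min, then 2 uM Z-FR-AMC substrate added; reaction progress from fluorescence change between first and third reads (60 s).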
StopGo reporter: lowers the luciferase signal of an FMDV 2A StopGo reporter; AID 1159524; 1.2% of 410,000 active; human cells with a luciferase reporter of 2A StopGo recoding; control for the full effect not named in the record; Potency, µM (titrated, usually from 57.9 µM), for inactives: at the top dose signal change, negative = less light; active = well fitted falling curve with a large enough effect; inconclusive = small, poorly fitted or top-dose-only effect; inactive = no such curve, though single readings can be large or run the other way; tested in HEK293T cells; further: on the % scale 0 is the no-effect control and ±100 the full control effect; nearly all actives have a fitted effect of over 45% in size; luciferase light after 4 h
SARS PLP yeast: SARS-CoV PLP inhibition in yeast; S. cerevisiae expressing SARS-CoV PLpro, growth rescue; control for the full effect not named in the record; Potency, µM (titrated, usually from 32.9 µM), for the others: top-dose activity, positive = growth rescue; 0.19% of 330,000 active; active means well fitted rising curve with a large enough effect; inconclusive means small, poorly fitted or top-dose-only effect; inactive means no such curve, though single readings can be large or run the other way; further: 0% is about no effect; nearly all actives have a fitted effect of over 55% in size; growth read by luminescence after 48 h
NS1 inh: blocks influenza NS1 protein function; S. cerevisiae slowed by influenza A NS1, growth recovery by OD600; Potency, µM (top dose mostly 46.1 µM), for inactives: top-dose activity, positive = more growth; 0.4% of 270,000 active; active means well fitted rising curve with a large enough effect; inconclusive means small, poorly fitted or top-dose-only effect; inactive means no such curve, though single readings can be large or run the other way; further: nearly all actives have a fitted effect of over 50% in size
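A cell-based growth assay was used: compounds that relieve NS1-induced slow growth of budding yeast raise OD600. Assay medium was yeast nitrogen base with ammonium sulphate and -URA supplement, pH 6.0, with 2% galactose.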
* hit, by the source's call; ? = inconclusive; nt = no result given; & = joins results of further samples; [ ] = another dose, or the depositor's remark. Unless noted, the call rests on the fitted dose curve; in most records, active means well fitted curve in the direction sought with a large enough effect; inconclusive means small, poorly fitted or top-dose-only effect, or another doubt; inactive means no such curve, though single readings can be large; an effect the other way counts as inactive or inconclusive. Potency means the concentration at half of the fitted maximal effect.

SMILES	RE007 growth inh	MARV entry inh	Cruzain Triton	LASV entry inh	Cruzain noTriton	StopGo reporter	SARS PLP yeast	NS1 inh
O=C(CSc1nnc(SCc2cccc3ccccc23)s1)c1ccc2c(c1)OCO2	9%	5%	-1.6%	15%	25µM*	-7%	-9%	7%
Cc1ccc(-n2nc3c(=O)n(CC(=O)NC(C)CCc4ccccc4)nc(C)c3c2C)cc1 (stereo not given)	2%	nt	nt	nt	nt	?	1%	9%
CCOc1ccc(N2C(=O)CC(C(C)c3ccccc3)C2=O)cc1 (stereo not given)	0%	nt	nt	nt	nt	13%	1%	6%
COc1ccc(OC)c(CNC(=O)c2nn(-c3ccc(OC)c(Cl)c3)c(=O)c3c2c2ccccc2n3C)c1	nt	0%[46.1 µM]	4.5%	-6%[46.1 µM]	13%	-18%	nt	nt
COc1ccc(CN2C(=O)c3cccnc3C2=O)cc1S(=O)(=O)N1CCCCC1	0%	nt	nt	nt	nt	-10%	0%	-14%
O=C(Nc1nc(-c2cc(F)ccc2F)cs1)c1cccc(N2C(=O)CCC2=O)c1	1%	?	nt	-7%	nt	?	-2%	nt
CS(=O)(=O)N1CCC(C(=O)Nc2ccccc2F)CC1	10%	13%	-1.8%	4%	1%	-7%	1%	?
Cc1cccc(CN(C)CCc2ccccn2)c1	5%	-6%	5.7%	11%	-1%	3%	3%	3%
COC(=O)c1ccccc1NC(=O)CSc1nc(N)cc(=O)[nH]1	16%	-20%[46.1 µM]	nt	-3%	nt	10%	1%	2%
CCn1c(SCC(=O)NNC(=S)Nc2ccc(C)cc2)nnc1-c1ccc(Cl)cc1	8%	?	-2.8%	24%	21%	-15%	0%	9%
CCn1c(=O)c(C(=O)Nc2ccsc2C(=O)OC)c(O)c2ccccc21	nt	nt	-2.7%	nt	?	nt	-9%	0%
O=C(c1cnn(C(=O)COc2ccc(Cl)cc2)c1)c1ccccc1O	?	?	-7.9%	2%	?	-20%	-15%	-27%
O=C(O)c1cccc(N/N=C/c2ccc(-c3ccccc3)cc2)c1	-7%	?	nt	8.9µM*	nt	14µM*	0%	nt
O=C1c2ccccc2C2(c3ccccc3)NCCN12 (stereo not given)	13%	-20%	1.8%	3%	5%	10%	-5%	2%
Cc1ccc(CNC(=O)CCS(=O)(=O)c2cc3c(cc2C)NC(=O)CO3)cc1	0%	nt	0.7%	-20%[46.1 µM]	7%	-2%&-10%	-4%	-1%
CSc1nc2sc3c(c2c(=O)n1Cc1ccccc1)CCC(C(C)(C)C)C3 (stereo not given)	nt	nt	-0.9%	-18%[46.1 µM]	-5%	?	nt	nt
CC1C=CCC2C(=O)N(c3cccc(C(=O)NCc4ccccc4)c3)C(=O)C12 (stereo not given)	14%	nt	nt	nt	nt	-26%	0%	1%
c1cncc(Nc2nc(-c3ccncc3)cs2)c1	7%	?	-5.4%	5%	-22%	7%	-2%	-6%
CCN(CC)c1ccc(NC(=O)COC(=O)c2ccc3ccccc3n2)cc1	5%	9%	-5.6%	5%	-4%	-1%	-1%	-8%
O=C(NC1CCCC1)c1ccc(Cl)c(S(=O)(=O)N2CCCCC2)c1	13%	-5%	nt	-4%	nt	-13%	0%	3%
COc1ccc(/C=C/C(=O)Nc2cccc(C(C)=O)c2)cc1	2%	?	-8.0%	-26%	-2%	-26%	-26%	-23%
CC(NC(=O)Cn1ncc2c3ccccc3n(Cc3ccc(F)cc3)c2c1=O)c1ccccc1 (stereo not given)	nt	?	-2.4%	0%[46.1 µM]	-16%	-1%	nt	nt
CC(=O)c1cccc(NC(=O)c2c(-c3ccccc3)c(-c3ccccc3)nn(C)c2=O)c1	nt	?	-4.4%	?	?	-25%	nt	nt
COc1ccc(S(=O)(=O)N2CCOCC2)cc1NC(=O)CSc1nnc(NC2CC2)s1	10%	?	nt	-10%	nt	8%	5%	nt
Cc1ccc(C)c(NC(=S)NC2CC3CCC(C2)N3Cc2ccco2)c1 (stereo not given)	4%	?	5.6%	-2%	-11%	nt	3%	?
O=C(COc1ccc(Br)cc1)N1CCNC1=O	8%	nt	nt	nt	nt	22%	-1%	-10%
Cc1cccc(N2CCN(C(=O)c3ccc4c(c3)NC(=O)C(CSCc3cccc(F)c3)N4)CC2C)c1 (stereo not given)	-2%	nt	nt	nt	nt	-26%	29%	17%
CC(=O)NC(Cc1cccc(C)c1)C(=O)NC1CCN(c2ncccc2[N+](=O)[O-])CC1 (stereo not given)	-2%	-2%	-3.7%	14%	16%	-15%	-7%	4%
COc1ccc(C(CC(=O)NCc2ccccc2)N2Cc3ccccc3C2=O)cc1 (stereo not given)	nt	nt	-2.9%	?	3%	20%	nt	nt
Cc1ccccc1NS(=O)(=O)c1ccc2[nH]cc(C(=O)N(C)Cc3ccco3)c(=O)c2c1	-19%	7%	7.7%	16%	-6%	-8%	5%	-3%
COc1cccc(CNS(=O)(=O)c2cc3c(cc2C)NC(=O)CO3)c1	13%	nt	nt	nt	nt	0%	1%	-9%
CC[C@@H]1C(c2cccc(C)c2)=NN(c2ccccc2)[C@H]1C(=O)N1CCOC1=O	-8%	nt	0.6%	nt	3%	-16%	5%	nt
Cc1cc(C)c(S(=O)(=O)c2cc(F)ccc2C)c(Cl)n1	6%	-1%[46.1 µM]	nt	-9%[46.1 µM]	nt	-23%	-4%	-6%
Cc1cccc(C)c1NC(=O)Cn1nc(C)c2sc3ccccc3c2c1=O	nt	11%[46.1 µM]	-11%	-15%[46.1 µM]	-19%	0%	nt	nt
COC(=O)C(CCSC)NC(=O)C12CC3CC(CC(C3)C1)C2 (stereo not given)	-1%	11%	-0.7%	-15%	-1%	nt	-4%	-69%
Nc1nc(SCC(=O)O)[nH]c(=O)c1NC(=O)c1ccco1	2%	nt	nt	nt	nt	-19%	1%	-1%
Nc1cccc(-c2cn3ccsc3n2)c1	nt	nt	-1.7%	-20%[46.1 µM]	10%	35%[activator]	nt	nt
O=C(CN1C(=O)c2cccc3cccc1c23)Nc1ccccc1	-7%	-27%[46.1 µM]	nt	nt	nt	-10%	-4%	nt
CC1CCC(NC(=O)CCNS(=O)(=O)c2ccccc2)CC1 (stereo not given)	12%	nt	nt	nt	nt	49%[activator]	1%	3%
CCCn1c(C)cc(/C=C(\C#N)C(=O)OCC(=O)Nc2cc(OC)c(OC)c(OC)c2)c1C	-12%	?	-5.4%	10%	4%	10%	-19%	-7%
O=C(NCc1ccccc1)c1ccc(CSc2ccccc2)o1	-14%	-3%[46.1 µM]	nt	?	nt	-10%	-1%	nt
O=C(CN1C(=O)NC2(CCCc3ccccc32)C1=O)NCc1ccco1 (stereo not given)	6%	6%	2.2%	3%	1%	-6%	-2%	-8%
COc1cc(CNC(=O)C2CC2)ccc1OCc1ccccc1	?	-14%[46.1 µM]	nt	?	nt	10%	-26%	-6%
O=C(CCCc1nc2ccccc2s1)NNC(=O)CCN1CCN(Cc2ccccc2)CC1	-21%	-4%[46.1 µM]	nt	13%	nt	-28%	-2%	nt
CC(C)c1ccccc1NC(=O)CN1C(=O)c2ccccc2C1=O	-9%	-1%[46.1 µM]	nt	5%[46.1 µM]	nt	-14%	-13%	1%
Cc1cccc(C)c1C(=NCCN(C)C)c1ccccc1	-12%	?	nt	?	nt	0%	nt	nt
COc1cccc(NC(=O)C2CCC(CNS(=O)(=O)c3csc(C(N)=O)c3)CC2)c1 (stereo not given)	nt	nt	-0.2%	8%[46.1 µM]	10%	-1%	nt	nt
Cc1cccc(OCCN2C(=O)c3ccccc3C2=O)c1	-21%	nt	nt	nt	nt	81%[activator]	-3%	-10%
O=C(OCc1nc2ccc(Cl)cc2n1CCO)c1ccccc1	8%	11%	-20%	8%	-8%	?	16%	2%
O=C(CC(=O)c1ccccc1)Nc1cccnc1	-22%	-9%	4.7%	0%[46.1 µM]	6%	14%	17%	16%
COc1ccc(-c2nc(-c3ccncc3)no2)c(OC)c1	-18%	nt	nt	nt	nt	9%	-2%	22%
Cc1ccccc1Nc1sc(C(=O)c2ccc3c(c2)OCO3)c(N)c1S(=O)(=O)c1ccccc1	nt	nt	-3.2%	?	7.9µM*	-8%	nt	nt
CCN(CC(=O)NCc1cccs1)C(=O)c1cccc(S(=O)(=O)NC)c1	-1%	-22%	nt	11%	nt	7%	-3%	nt
CCn1ccnc1CNC(=O)CC1C(=O)NCCN1Cc1ccccc1F (stereo not given)	-13%	3%[46.1 µM]	nt	6%[46.1 µM]	nt	-4%	1%	1%
COCCC(=O)N1CCC(Oc2ccc(C(=O)NCc3ccon3)cc2)CC1	2%	25%	nt	4%	nt	-5%	-1%	8%
Cc1ccc(O)c(NC(=O)C2CC(c3cccc(Br)c3)=NO2)c1 (stereo not given)	2%	-13%[46.1 µM]	nt	?	nt	-8%	12%	27%
COC(=O)c1sc(N)c(C(=O)OC)c1COC(=O)CNS(=O)(=O)c1ccc(C)c(C)c1	5%	10%	-9.1%	9%	8%	1%	15%	-18%
O=C(O)CCC(=O)Nc1ccc(N=Nc2ccccc2)cc1	-4%	1%[46.1 µM]	nt	-3%	nt	58%[activator]	0%	nt
Cc1onc(-c2ccccc2)c1C(=O)N/N=C/c1ccc(O)c([N+](=O)[O-])c1	10%	1%	nt	12%	nt	-8%	4%	11%
CCCC(=O)Nc1ccc(Cl)c(NC(=O)c2cccnc2Cl)c1	0%	0%	5.0%	11%	-11%	1%	-8%	-7%

Continuation.
SMILES	RE007 growth inh	MARV entry inh	Cruzain Triton	LASV entry inh	Cruzain noTriton	StopGo reporter	SARS PLP yeast	NS1 inh
CC(=O)N1N=C(c2c(-c3ccccc3)c3cc(C)ccc3[nH]c2=O)CC1c1ccco1 (stereo not given)	-3%	?	-13%	?	7%	0%	-6%	-10%
CCc1ccc(C(C)NC(=O)Cn2cnc3c(=O)n(C)c(=O)n(C)c32)cc1 (stereo not given)	6%	0%	-1.6%	-29%	-16%	-27%	-8%	12%
CCCCN1C(=O)NC(=O)/C(=C/c2cnc(SC)nc2)C1=O	-18%	-4%	-2.5%	13%	6%	0%	7%	10%
c1cncc(-c2nnc3n2N=C(c2cccs2)CS3)c1	14%	-13%	-2.2%	?	-18%	-4%	5%	2%
CC(=O)NNS(=O)(=O)c1scc(S(=O)(=O)c2ccc(Cl)cc2)c1C	-3%	nt	nt	nt	nt	-2%	1%	3%
